Assay outcomes (PubChem)
CDC25B-CDK2 inh = human CDC25B-CDK2/CyclinA binding inhibition; HTRF CDC25B-CDK2/CyclinA binding, anti-His/anti-Flag; hits give high values; actives 0.72% (n = 94,000); AID 1259370; P30305+P24941; z-score (no concentration beside the values);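 note: score is relative to mean and SD of negative controls; strong numbers were not always called active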
HIV TAR-Tat = HIV-1 TAR-Tat binding disruption | z-score (test concentration not listed) | AID 1259389 | actives 0.6% (n = 100,000) | HIV-1 TAR RNA, Tat peptide displacement FRET; hits give high values;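 note: score is relative to mean and SD of negative controls; some compounds called inactive have numbers as strong as hits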
* hit, by the source's call; . = not tested or not shown.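 Rule for the calls: active = z-score from 3 up in half or more of its runs; inactive = the rest.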

Results follow in this order: CDC25B-CDK2 inh	HIV TAR-Tat
- O=C(Nc1ccc(Br)cc1)c1ncn(-c2ccccc2)n1
    -1.7	3
- CCOC(=O)c1cnn(-c2ccccc2)c1C
    -0.76	1.2
- O=c1[nH]c(SCc2ccc(Cl)cc2Cl)nc2ccccc12
    -1.5	.
- CCOc1cc(C2NC(=O)c3n[nH]c(-c4ccco4)c32)ccc1O (configuration not stated)
    2.1	0.13
- Cc1ccc2cc(CCNC(=O)c3ccc(S(=O)(=O)N4CCCC4)cc3)c(=O)[nH]c2c1C
    -2.2	.
- Cc1cc(C)nc(N2CCC(NC(=O)C3CCCCC3)CC2)n1
    1.6	2.2
- Cc1ccc2cc3c(nc2c1)N(C(=O)C(C)(C)C)CC3
    -1.4	-0.23
- CN1CCN(c2nc(NCCN3CCCCC3)nc3c2cnn3C)CC1
    .	2.1
- CCc1ccc2ncc(S(=O)(=O)c3ccc(OC)cc3)c(N(CC)CC)c2c1
    4.1	0.8
- O=C(CC1COc2ccc(Cl)cc2NC1=O)NC1CCCC1 (configuration not stated)
    .	0.27
- CCc1nc(SCC(=O)c2ccc(Br)cc2)n[nH]1
    0.06	-0.12
- CCCCN(CC)C(=O)Cn1ncc2c([nH]c3ccc(C)cc32)c1=O
    .	-0.88
- Cn1c(CCc2ccc(NS(=O)(=O)c3ccc(F)c(F)c3)cc2)nc2ccccc21
    .	2
- COc1cccc(-c2csc(-c3nc(-c4cccs4)cs3)n2)c1
    .	1.4
- CCSCCOC(=O)C1=C(C)NC2=C(C(=O)CCC2)C1c1ccc(N(C)C)cc1 (configuration not stated)
    0.82	-0.25
- O=C(c1cc2n(n1)C(C(F)(F)F)CC(c1ccco1)N2)N1CCN(c2ccccn2)CC1 (configuration not stated)
    -0.26	-1.9
- CCOc1ccc(C2=NS(=O)(=O)c3cc(S(=O)(=O)N4CCCCC4)ccc3N2)cc1OCC
    .	-1.3
- O=[N+]([O-])c1c(Cl)nc2sccn12
    -1.5	.
- Cc1nnsc1C(=O)Nc1nnc(SCc2ccc(Cl)cc2)s1
    0.28	-1.1
- Cc1cccc(NC(=O)c2c(O)c3c([nH]c2=O)CCCC3)n1
    .	2.4
- COc1cc(/C=C2\SC(=S)NC2=O)cc(Cl)c1OS(=O)(=O)c1ccccc1
    5	.
- COc1ccc(OC)c(-n2c(=O)c(C#N)cc3c(=O)n4cccc(C)c4nc32)c1
    -2.9	0.55
- Cc1nnc2c3ccccc3nc(Nc3ccc4c(c3)OCCO4)n12
    .	2.4
- O=C(Nc1ccccc1SCc1cc(=O)n2[nH]c(-c3ccccc3)nc2n1)c1ccco1
    .	0.51
- CCCc1nc(N)c(C#N)c(-c2ccccc2Cl)c1CC
    -1.2	.
- CCC(Sc1nnc2c3ccccc3n(C)c2n1)C(=O)Nc1nnc(C)s1 (configuration not stated)
    -2.2	-1.9
- CCCn1cc(S(=O)(=O)c2ccc(CC)cc2)c(=O)c2cc(F)c(N3CCOCC3)cc21
    .	-0.04
- CC(=O)N1CCc2cc3cccc(C)c3nc21
    0.26	-1.3
- COC(=O)c1sccc1NC(=O)NCc1cccn1Cc1ccc(Cl)cc1
    -1.2	-0.04
- CC1CCC(NC(=O)C2c3ccccc3C(=O)N(C3CCCC3)C2c2cccs2)CC1 (configuration not stated)
    .	0.29
- COc1cc(C2NC(=O)NC(O)(C(F)(F)F)C2C(=O)c2ccccc2)ccc1O (configuration not stated)
    -1.7	.
- COc1ccccc1OCCCCn1c(CN2CCCCC2)nc2ccccc21
    -1.9	-0.66
- O=C(Nc1nnc2n1CCS2)C1CCCC1
    .	1.6
- O=C(Nc1ccccc1Cl)c1csnn1
    0.8	0.35
- CCc1ccccc1NS(=O)(=O)c1cc(-c2cc(C)no2)ccc1C
    .	-0.29
- N#CC(C#N)(Cc1ccccc1)Cc1ccccc1
    -1	.
- CSc1cccc(NC(=O)NC2COc3ccccc3C2)c1 (configuration not stated)
    .	0.89
- CCCSCCCNc1cc(-n2nc(C)cc2C)ncn1
    .	1.8
- O=C1c2ccccc2C(=O)N1CSc1nc2ccccc2[nH]1
    2.2	.
- CCC(C(=O)N1CCN(c2ccc(F)cc2)CC1)n1nc(C)c2sc3ccccc3c2c1=O (configuration not stated)
    -0.29	2.3
- CCCCOC(=O)COc1ccc2c(=O)c(Oc3ccc(OC)cc3)coc2c1
    -0.57	1.9
- COc1cc2c(cc1OC)C(c1ccccc1)=NC(C)(C)C2
    -2.2	-0.17
- COc1ccc(-c2nc(C3CCCCC3)no2)cc1OC
    -0.36	.
- CCCNC(=O)C(C)N1C(=O)CCn2nc(C)cc21 (configuration not stated)
    .	2.5
- CCOC(=O)c1c(C)[nH]c(C)c1S(=O)(=O)NC1CCCC1
    .	2.3
- Cc1ccc(Cn2c(=O)c3c(nc(NCCO)n3C)n(C)c2=O)cc1
    -1.1	0.03
- O=[N+]([O-])c1cccc(-c2ccc(/C=N/NC(=S)NCc3ccco3)o2)c1
    -1.5	.
- Cc1nn(C(C)C(=O)NCCCN2CCCC2=O)c(=O)c2c1sc1ccccc12 (configuration not stated)
    -1.4	2
- CCN1CCN(c2cc3c(cc2F)c(=O)c(S(=O)(=O)c2ccc(OC)cc2)cn3CC)CC1
    .	0.69
- Cc1ccc(C)c(N2C(=O)N(Cc3cccc(Cl)c3)C3CS(=O)(=O)CC32)c1 (configuration not stated)
    -1.7	1.5

(continued)
Results follow in this order: CDC25B-CDK2 inh	HIV TAR-Tat
- CC(Oc1ccccc1)c1nc2ccc(Cl)cc2[nH]1 (configuration not stated)
    -0.95	2.1
- Cc1ccc(-c2[nH]nc3nc(-c4ccc(O)c(O)c4)cc(C(=O)O)c23)cc1
    -0.27	20*
- CCOC(=O)N1CCN(S(=O)(=O)c2cc(Br)cc3c2N(C(=O)C2CC2)CC3)CC1
    -0.14	-1.1
- CCn1cc(C(=O)OCc2cccc(Br)c2)c(=O)c2ccc(C)nc21
    0.22	.
- O=C(CSc1nnc(-c2cccnc2)n1-c1ccccc1)c1c[nH]c2ccccc12
    .	1.4
- CCOC(=O)c1cc(-c2ccc(S(=O)(=O)N3c4ccccc4CC3C)s2)on1 (configuration not stated)
    .	-0.29
- CCN(CC)CCNC(=O)c1cnn2c3c(cnc12)CCCCC3
    .	0.74
- CCOC(=O)c1c(-c2ccco2)csc1NC(=O)CSc1nnc2sc3ccccc3n12
    -1.2	.
- COc1ccc(NC2=NS(=O)(=O)C(c3ccc(C(C)C)cc3)=C2C)cc1Cl
    -1.9	-0.9
- Cc1cccc(C)c1N(CC(O)Cn1c2ccccc2c2ccccc21)S(C)(=O)=O (configuration not stated)
    -1.2	.
- O=C(NNC(=O)C1CCCS1)c1ccc(Cl)cc1 (configuration not stated)
    -1.5	.
- CCCn1c(NC(=O)c2ccco2)nc2ccccc21
    -1.6	.
- O=C(CCCN1C(=O)c2cccnc2Oc2ccccc21)N1CCN(C2CCCCC2)CC1
    .	1.1
- Cc1ccc2onc(CNC(=O)Nc3ccc4c(c3)OCCO4)c2c1
    .	-0.96
- O=C(NC(Cc1c[nH]c2ccccc12)C(=O)NC1CCCCC1)Oc1ccccc1 (configuration not stated)
    1	1.1
- COc1ccc(S(=O)(=O)N2CCc3cc4ccccc4nc32)c(OC)c1
    -1.6	-1.9
- COc1cc(CN2CC(=O)N(c3ccccc3Cl)C2=S)cc(OC)c1OC
    -1.2	.
- COc1ccc(-c2nc3n(n2)C2(CCCCC2)[C@@H]2CCCC[C@@H]2N3C(=O)c2ccco2)cc1
    0.12	2.2
- Cc1nc2ccccc2c2oc(C(=O)NCCC3=CCCCC3)cc12
    -2.1	0
- CCOc1ccc(-c2nnc3ccc(SCC(=O)Nc4cc(C)on4)nn23)cc1
    -2.3	.

Record cards, as listed above:
Listed for COc1ccc(-c2nc3n(n2)C2(CCCCC2)[C@@H]2CCCC[C@@H]2N3C(=O)c2ccco2)cc1 → CDC25B-CDK2 inh = 0.12; HIV TAR-Tat = 2.2
Listed for O=C(NNC(=O)C1CCCS1)c1ccc(Cl)cc1 (configuration not stated) → CDC25B-CDK2 inh = -1.5; HIV TAR-Tat = .

Carrying on.
Results follow in this order: CDC25B-CDK2 inh	HIV TAR-Tat
- COc1ccc(Oc2ccc([N+](=O)[O-])cc2C(=O)N2CCCc3ccccc32)cc1
    -0.28	.
- Cc1cc(NS(=O)(=O)c2cc(-c3cnc(C4CC4)o3)ccc2C)ccc1Br
    .	0.7
- COc1cccc2c1OC(c1cccc(F)c1)N1N=C(c3cccnc3)CC21 (configuration not stated)
    -2.5	.
- Cc1ccc(-c2c(N3CCCCC3C)c(=O)c2=O)cc1 (configuration not stated)
    .	0.98
- CC(=O)CC1OC(=O)C(Br)=C1NCc1ccccc1 (configuration not stated)
    -1.4	.
- COc1ccc(-c2nc3c4c5c(sc4ncn3n2)CCCCC5)cc1
    -1.4	1.7
- O=C(CN1C(=O)N(c2ccc(Cl)cc2)S(=O)(=O)c2ccccc21)N1CCCc2ccccc21
    .	1.1
- O=C(O)C1Cc2c([nH]c3ccccc23)C(c2ccc3c(c2)OCO3)N1 (configuration not stated)
    -1.8	0.72
- CCCC(C)NC(=O)CN1C(=O)c2ccccc2S1(=O)=O (configuration not stated)
    0.04	2.4
- COc1ccc(Cl)cc1NS(=O)(=O)c1ccc(N2CCCCS2(=O)=O)cc1
    .	-0.07
- CC(C)(C)Sc1ccc(C(=O)O)s1
    -3.9	0.44
- COc1ccc(N2CCN(S(=O)(=O)c3ccc(-c4ccno4)cc3OC)CC2)cc1
    .	1.2
- C#CCN1C(=O)C(O)(CC(=O)c2ccccc2)c2ccccc21 (configuration not stated)
    -1.4	.
- NC(=O)C(CCCN=C(N)CCl)NC(=O)c1ccccc1 (configuration not stated)
    .	2.7
- CC1=C(c2cccc(Br)c2)S(=O)(=O)N=C1N1CCC(N2CCCCC2)CC1
    -1.9	0.91
- CCOC(=O)c1cnc2cc(-c3ccc(Br)cc3)nn2c1C
    0.18	3
- Cc1ccc(-c2nc3c4cnn(C)c4ncn3n2)cc1
    -1.2	0.87
- Cc1ccc(C(=O)Cn2c(=O)n(CC3CCCO3)c(=O)c3ccccc32)cc1 (configuration not stated)
    -1.6	.
- CCc1nnc2c3ccccc3nc(Nc3ccc(F)cc3)n12
    .	1.7
- CCCCCn1c(C2CC(=O)N(c3ccccc3OCC)C2)nc2ccccc21 (configuration not stated)
    -1.5	0.95
- O=C1CCCc2cc(S(=O)(=O)NCC3CCCO3)ccc2N1 (configuration not stated)
    .	-1.4
- Cc1cnc(-c2cnc(NCCNc3ccc(C#N)cc3)nc2-c2ccc(Cl)cc2Cl)[nH]1
    .	0.13
- Cc1ccc(S(=O)(=O)Nc2ccc3c(c2)sc(=O)n3C)c(C)c1
    .	-0.01
- O=C(NC1CCCCC1)c1nnsc1NC(=O)N1CCN(c2ccccn2)CC1
    .	1.1
- CC(C)S(=O)(=O)c1oc(-c2ccc(F)cc2)nc1S(=O)(=O)c1ccc(F)cc1
    -3.5	1.8
- CCNc1oc(/C=C/c2ccc(OCC)cc2)nc1C#N
    -1.6	2.4
- CCOC(=O)c1cc(C)nc2c1c(=O)n(Cc1nc(-c3cccs3)oc1C)c(=O)n2C
    .	0.36
- CC(C)CSc1nc(N2CCCC2)c2c(c1C#N)CC(C)(C)OC2
    -1.2	.
- Nc1c(-c2nc(-c3ccccc3)no2)nnn1-c1ccc(F)c(Cl)c1
    .	0.3
- CCCCOC(=O)NC(Nc1ncccn1)(C(F)(F)F)C(F)(F)F
    0.53	.

A different layout for part of the listing above:
Cc1ccc(C(=O)Cn2c(=O)n(CC3CCCO3)c(=O)c3ccccc32)cc1 (configuration not stated)
  CDC25B-CDK2 inh: -1.6 | HIV TAR-Tat: .

CCc1nnc2c3ccccc3nc(Nc3ccc(F)cc3)n12
  CDC25B-CDK2 inh: . | HIV TAR-Tat: 1.7

CCCCCn1c(C2CC(=O)N(c3ccccc3OCC)C2)nc2ccccc21 (configuration not stated)
  CDC25B-CDK2 inh: -1.5 | HIV TAR-Tat: 0.95

Later entries
Results follow in this order: CDC25B-CDK2 inh	HIV TAR-Tat
- O=C(NC1CC1)c1[nH]nc2c1CCc1ccccc1-2
    .	0.04
- Cc1ccc(S(=O)(=O)[C@H]2CS(=O)(=O)C[C@@H]2N2CCN(c3cccc(Cl)c3)CC2)cc1
    0.97	1.8
- COc1cc(C(=O)NC(=S)Nc2ccc3c(c2)OCO3)cc(OC)c1OC
    0.49	.
- CSc1ccc(CNC(=O)c2cnc3sc4c(n3c2=O)CCCC4)cc1
    .	1.5
- Cc1cccc(CSc2nnc([C@@H]3CCCN3)o2)c1
    -1.2	0.65
- O=C(CCc1nc(-c2ccco2)no1)NC1CCCC1
    -0.18	0.79
- O=S(=O)(Nc1cccc2cccnc12)c1ccccc1
    1.1	0.84
- Cc1ccc(NC(=O)c2ccc([N+](=O)[O-])o2)nc1
    0.68	0.65
- CCCNC(=O)C1=CC(c2ccc3c(c2)OCO3)=NS(=O)(=O)N1C
    -1.1	2.8
- CCOC(=O)C1CCN(C(c2ccco2)c2sc3nc(C)nn3c2O)CC1 (configuration not stated)
    -0.98	.
- Nc1nc(S(=O)(=O)Cc2ccccc2)ns1
    -0.38	1.1
- N/C(=N\OC(=O)c1ccc(C#Cc2ccccc2)o1)c1cccc(C(F)(F)F)c1
    -2.2	.
- Cc1nc2sc(C(=O)c3ccc(Cl)cc3)c(N)c2c(C)c1C
    -2	2
- Cc1cc(C)cc(-n2ccnc(SCC(=O)c3ccc(F)cc3)c2=O)c1
    .	-0.07
- COc1cc(OC)c(NS(=O)(=O)c2cc3c(cc2C)N(C)CCO3)cc1Cl
    .	0.75
- CSc1ccc(/C=C/c2nc(=O)c3ccccc3o2)cc1
    -0.74	-0.65
- Cc1c(C(=O)N2CCOCC2)oc2ccc3c(c12)C(=O)CC(C)(c1ccc(Cl)cc1)O3 (configuration not stated)
    -2.8	1.7
- O=C(CN1C(=O)CSc2ccc(S(=O)(=O)N3CCOCC3)cc21)NCCCN1CCCCC1
    .	1.1
